Screens (PubChem)
Cruzain inh noDet: inhibitors of Trypanosoma cruzi cruzain without detergent; hit rate 2.3% among 200,000; purified cruzain, Z-FR-AMC fluorescence, no detergent; Potency, µM, without a hit: max response, negative = inhibition, actives largely listed as inhibitors;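 also: plate controls were enzyme without inhibitor for no effect and buffer without enzyme for full effect; nearly all actives have a fitted effect of over 40% in size; top concentration of the series not given in the record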
Target sequence (P25779 123-467 limits assumed): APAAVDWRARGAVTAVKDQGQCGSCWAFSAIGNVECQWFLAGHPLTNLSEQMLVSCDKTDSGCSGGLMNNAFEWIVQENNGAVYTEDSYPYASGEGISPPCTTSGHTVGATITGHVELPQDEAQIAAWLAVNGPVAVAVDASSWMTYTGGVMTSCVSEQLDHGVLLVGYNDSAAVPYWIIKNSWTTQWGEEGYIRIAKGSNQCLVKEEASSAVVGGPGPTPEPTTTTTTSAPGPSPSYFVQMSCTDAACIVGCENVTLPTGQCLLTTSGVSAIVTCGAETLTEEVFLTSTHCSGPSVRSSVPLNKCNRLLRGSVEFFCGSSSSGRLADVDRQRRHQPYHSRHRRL
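Detergent-free condition (0.00005% Triton X-100) in acetate buffer pH 5.5 with DTT. 1.5 nM enzyme and compound were pre-mixed 15 min, then 2 uM Z-FR-AMC substrate added; reaction progress from fluorescence change between first and third reads (60 s).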
Cruzain Triton: cruzain (T. cruzi) inhibition with detergent | AID 1478 | P25779 | Potency, µM, inactives show max response, negative = inhibition, most hits filed as inhibitors | purified cruzain, Z-FR-AMC fluorescence, 0.01% Triton | hit rate 0.43% among 200,000;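 also: plate controls were neutral wells for no effect and buffer without enzyme for full effect; nearly all actives have a fitted effect of over 40% in size; top concentration of the series not given in the record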
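Purified cruzain (1.5 nM final) was preincubated with compounds for 15 min at room temperature in 100 mM sodium acetate pH 5.5, 5 mM DTT, 0.01% Triton X-100. Reaction started with 2 uM Z-FR-AMC; AMC fluorescence change over 60 s gave activity.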
NS1 function inh: blocks influenza NS1 protein function; S. cerevisiae slowed by influenza A NS1, growth recovery by OD600; Potency, µM (highest dose often 46.1 µM), inactives show top-dose activity, positive = more growth; hit rate 0.4% among 270,000; AID 2326; active means well fitted rising curve with a large enough effect; inconclusive means small, poorly fitted or top-dose-only effect; inactive means no such curve, though single readings can be large or run the other way; also: nearly all actives have a fitted effect of over 50% in size
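In this qHTS, NS1 from influenza A is expressed in budding yeast, where it slows growth. Cells are switched from glucose to 2% galactose medium (pH 6.0, -URA), treated with compound, and growth recovery is read at OD600.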
LASV entry inh: blocks Lassa virus binding to or entry into cells; Lassa virus pseudotype entry inhibition, cell reporter; control for the full effect not named in the record; Potency, µM (highest dose often 37.9 µM), without a hit: at the top dose activity change, negative = inhibition, actives largely listed as inhibitors; hit rate 1.2% among 300,000; active means well fitted inhibition curve with a large enough effect; inconclusive means small, poorly fitted or top-dose-only effect, or effect the other way; inactive means flat fitted curve, though single readings scatter; tested in HEK293 cells; also: % is scaled to controls: 0 for no effect and ±100 for the full control effect; nearly all actives have a fitted effect of over 50% in size; luciferase read-out
RE007 growth inh: less growth of the S. pombe RE007 Vpr strain. AID 651644. hit rate 0.21% among 360,000. S. pombe RE007 Vpr strain, BacTiter-Glo ATP luminescence, 24 h; control for the full effect not named in the record. Potency, µM (series often up to 92.2 µM), for the others: at the top dose activity change, negative = less growth; active = well fitted falling curve with a large enough effect; inconclusive = small, poorly fitted or top-dose-only effect; inactive = no such curve, though single readings can be large or run the other way;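 also: % is scaled to controls: 0 for no effect and ±100 for the full control effect; nearly all actives have a fitted effect of over 50% in size; the assay follows cell death caused by Vpr and the record does not say whether a fall means rescue or toxicity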
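Fission yeast strain RE007, carrying one chromosomally integrated HIV-1 vpr copy, was seeded at OD 0.01 in PMG+AL medium with 23 nL pinned compound. After 24 h at 30 °C and 99% humidity, viability was read by BacTiter-Glo luminescence.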
SARS PLpro yeast: SARS-CoV PLP inhibition in yeast. S. cerevisiae expressing SARS-CoV PLpro, growth rescue; control for the full effect not named in the record. Potency, µM (highest dose often 32.9 µM), for inactives: at the highest dose activity, positive = growth rescue. hit rate 0.19% among 330,000; active means well fitted rising curve with a large enough effect; inconclusive means small, poorly fitted or top-dose-only effect; inactive means no such curve, though single readings can be large or run the other way; also: 0% is about no effect; nearly all actives have a fitted effect of over 55% in size; growth read by luminescence after 48 h
StopGo reporter: FMDV 2A StopGo reporter, luciferase signal; human cells with a luciferase reporter of 2A StopGo recoding; control for the full effect not named in the record; Potency, µM (titrated, usually from 57.9 µM), for inactives: top-dose signal change, negative = less light; hit rate 1.2% among 410,000; active = well fitted falling curve with a large enough effect; inconclusive = small, poorly fitted or top-dose-only effect; inactive = no such curve, though single readings can be large or run the other way; tested in HEK293T cells; also: % is scaled to controls: 0 for no effect and ±100 for the full control effect; nearly all actives have a fitted effect of over 45% in size; luciferase light after 4 h
Marburg entry inh: inhibitors of Marburg virus binding or cell entry; Marburg virus pseudotyped entry inhibition, cell reporter; control for the full effect not named in the record; about a third of the inactives were read at about 46 µM; hit rate 1.8% among 300,000; Potency, µM (doses to about 37.8 µM), for the others: top-dose activity change, negative = inhibition, most hits filed as inhibitors; active = well fitted inhibition curve with a large enough effect; inconclusive = small, poorly fitted or top-dose-only effect, or effect the other way; inactive = flat fitted curve, though single readings scatter; tested in HEK293 cells; about a fifth of its hits are not listed in these tables; also: % is scaled to controls: 0 for no effect and ±100 for the full control effect; luciferase read-out
Starred values were filed as active, the others as inactive; ? = inconclusive; · = not tested or not shown; & = joins results of further samples; [ ] = dose if it differs, or a comment. Unless noted, calls follow the shape of the dose curve; as a rule, active = well fitted curve in the direction sought with a large enough effect; inconclusive = small, poorly fitted or top-dose-only effect, or another doubt; inactive = no such curve, though single readings can be large; an effect the other way counts as inactive or inconclusive. Potency is read from the fitted curve at half-maximal effect.

Value order: Cruzain inh noDet	Cruzain Triton	LASV entry inh	NS1 function inh	RE007 growth inh	Marburg entry inh	StopGo reporter	SARS PLpro yeast
Cc1ccc(N2CCN(C(=O)NCc3noc4ccccc34)CC2C)cc1 (configuration not stated)
→ -8%	-1.6%	-1%[46.1 µM]	·	·	·	-7%	·
Cc1[nH]c(C)c(S(=O)(=O)N2CCc3ccccc32)c1C(=O)N1CCCCC1
→ ·	·	25%[46.1 µM]	7%	6%	-17%[46.1 µM]	15%	4%
CCN(CC(=O)Nc1ccc(NC(C)=O)cc1)CC(=O)Nc1ccc(F)c(Cl)c1
→ ·	·	-12%[46.1 µM]	1%	-8%	-12%[46.1 µM]	-12%	-3%
O=C(CCCCl)NC(=S)Nc1ccc(N2CCOCC2)cc1
→ ·	·	?	8%	-29%	?	54%[activator]	-1%
COCC(=O)Nc1ccc([N+](=O)[O-])cc1OC
→ -4%	-2.8%	19%	3%	4%	0%	-17%	1%
COc1ccc(S(=O)(=O)Nc2cccc(-c3ccc(N4CCCCCC4)nn3)c2)cc1F
→ -12%	-3.8%	-12%[46.1 µM]	·	·	·	40%[activator]	·
O=C(NCCO)c1cc([N+](=O)[O-])cc2c1C=Cc1ccccc1O2
→ ·	·	8%	·	12%	1%[46.1 µM]	-8%	0%
CCCCn1c(=S)[nH]c2ccccc2c1=O
→ -12%	-6.0%	?	4%	-26%	?	23%	?
CCS(=O)(=O)c1ccc2c(c1)N(S(=O)(=O)c1ccc(C)cc1)CC(C(=O)O)O2 (configuration not stated)
→ ·	·	0%	3%	-15%	14%[46.1 µM]	0%	-1%
CCNc1oc(-c2ccc(COc3ccc(Cl)cc3)o2)nc1C#N
→ -12%	-5.7%	-2%[46.1 µM]	·	·	8%[46.1 µM]	?	·
O=C(c1ccccc1S(=O)(=O)NCc1ccccc1)N1CCCC1
→ -2%	12%	·	?	5%	·	9%	11%
COC(=O)c1c(NC(=O)c2ccc(S(=O)(=O)N3CCC(C)CC3)cc2)sc2c1CCN(C)C2
→ 15%	-5.7%	-20%[46.1 µM]	·	·	·	-5%	·
CCOCCCN(C)C1CCN(C(=O)c2oc3ccccc3c2NC(=O)COc2cccc(C)c2)CC1
→ ·	·	?	1%	-3%	?	65%[activator]	4%
Cc1c(C(=O)N2CCc3ccccc3C2)oc2ccc(S(=O)(=O)N3CC(C)CC(C)C3)cc12 (configuration not stated)
→ ?	-6.4%	?	?	18%	?	-23%	-6%
COC(=O)c1ccccc1NC(=O)c1nc2nc(C)cc(C)n2n1
→ 13%	-0.2%	3%	-13%	5%	22%	-3%	-2%
CC(Nc1n[nH]c(=S)[nH]c1=O)C(=O)OCc1ccccc1 (configuration not stated)
→ -9%	-0.5%	2%	-3%	18%	13%	32%[activator]	-1%
CCOC(=O)N1CCN(S(=O)(=O)c2ccc3c(c2)CCN3C(=O)C2CCC2)CC1
→ 25%	2.9%	-27%	-49%	-9%	?	-11%	-2%
CC(C)NC(=S)NC(c1ccccc1)(c1ccccc1)c1ccccc1
→ ·	·	·	-54%	-1%	·	?	2%
O=C(O)Cc1cccc2ccccc12
→ -3%	2.0%	·	·	-4%	·	-27%	0%
Cn1ccc(C(=O)NC(=S)Nc2ccc([N+](=O)[O-])cc2O)n1
→ ·	·	·	-10%	-1%	·	60%[activator]	-10%
COc1ccc(-c2nnn(CC(=O)N(CCO)C(C(=O)NC3CCCC3)c3ccc(F)cc3)n2)cc1 (configuration not stated)
→ 0%	-0.1%	-4%	-13%	-7%	?	-14%	-11%
Cc1occc1C(=O)n1nnc2ccccc21
→ -5%	3.5%	-14%	-58%	-19%	10%	?	·
CC#CCN(Cc1ccco1)C(=O)c1ccc(OC2CCN(Cc3ccccn3)CC2)cc1
→ ·	·	-1%	2%	-15%	-6%	-3%	0%
c1ccc(NCCc2ccccn2)cc1
→ ·	·	?	·	-12%	?	23%	·
COC(=O)C1=C(C)NC(=O)NC1c1ccsc1 (configuration not stated)
→ -8%	5.1%	1%	0%	41%	5%	1%	?
CC(C)Oc1ccc(/C(O)=C2/C(=O)C(=O)N(CCN3CCOCC3)C2c2ccccc2)cc1 (configuration not stated)
→ 11%	-7.1%	2%	-1%	1%	?	-23%	1%
CCn1nc(NC(=O)c2cccnc2)c2cc3cccc(C)c3nc21
→ -19%	1.0%	-17%	-14%	1%	16%	?	-14%
CCc1c(C)nc2ncnn2c1N1CCCC(C(=O)NCc2cccs2)C1 (configuration not stated)
→ ·	·	-13%	3%	-8%	-12%[46.1 µM]	?	1%
O=S(=O)(c1ccc(-c2cnc(C3CC3)o2)cc1)N1CCN(c2ccccc2)CC1
→ ?	-0.6%	-1%[46.1 µM]	-7%	-7%	·	-13%&-23%	-2%
O=C1NC(=O)N(CCC2=CCCCC2)C(=O)/C1=C/c1cccs1
→ ·	·	9%	-4%	8%	10%	?	3%

Next section
Value order: Cruzain inh noDet	Cruzain Triton	LASV entry inh	NS1 function inh	RE007 growth inh	Marburg entry inh	StopGo reporter	SARS PLpro yeast
NC(=O)CC(NC(=O)Cc1ccc(Br)cc1)c1ccc(NCC2CC2)c([N+](=O)[O-])c1 (configuration not stated)
→ ·	·	·	5%	7%	·	?	1%
COc1ccc(OC)c(CNC(=O)c2ccc(-c3nc(CSc4ccccc4)c(C)o3)cc2)c1
→ -28%	-4.7%	-21%[46.1 µM]	·	·	·	-20%	·
COCCN(CC(=O)NCc1ccccc1)C(=O)CCC(=O)Nc1ccccn1
→ 6%	0.1%	9%	-1%	21%	?	?	4%
COc1ccc(NC(=O)c2[nH]c(C)c(C(C)=O)c2C)cc1Cl
→ 9%	0.5%	?	-20%	2%	?	50%[activator]	-5%
O=C(Nc1cccc(Cl)c1)c1cc(S(=O)(=O)N2CCCc3ccccc32)ccc1F
→ -53%	0.5%	-5%[46.1 µM]	·	·	·	-13%	·
COc1ccc(-c2cc(-c3nc(-c4cc(OC)c(OC)c(OC)c4)no3)[nH]n2)c(OC)c1
→ ?	0.6%	?	·	·	·	?	·
CC(C)CC(=O)Nc1nnc(-c2ccco2)s1
→ -7%	0.0%	?	-4%	-22%	19%	·	-1%
Cc1ccc(C(=O)Cn2c(C(=O)/C=C/c3ccccc3)nc3ccccc32)cc1
→ ?	2.4%	?	20%	-13%	-25%	?	1%
COc1cccc(C(=O)NC2CC3CCCC(C2)N3Cc2ccc(C)cc2)c1 (configuration not stated)
→ ·	·	·	7%	-1%	·	-14%	-1%
Cc1cc(O)c(S(=O)(=O)c2ccccc2)c(C)c1NS(=O)(=O)c1ccccc1
→ ·	·	1%	8%	8%	?	12%	-3%
Cc1cccc(N(C(=O)c2csnn2)C(C(=O)NC2CCCC2)c2ccncc2)c1 (configuration not stated)
→ ·	·	-9%	-4%	1%	-27%[46.1 µM]	5%	1%
CN(C)C1(CNC(=O)C2CCC(=O)N(Cc3ccc(Cl)cc3)C2)CCCCC1 (configuration not stated)
→ ·	·	·	-1%	2%	·	-12%	6%
Cc1ccccc1NCC(=O)N/N=C/C(Br)=C/c1ccccc1
→ 2%	2.3%	-38%	-1%	-9%	?	·	-11%
CC(=O)Nc1ccc(NC(=O)C(C)OC(=O)CCCOc2ccc(Cl)cc2C)cc1 (configuration not stated)
→ ·	·	?	·	-1%	19%[46.1 µM]	-16%	-7%
COc1ccc(S(=O)(=O)Nc2ccc3oc4c(c3c2)C(=O)CC(C)(C)C4)cc1
→ 6%	-2.9%	?	·	·	10%[46.1 µM]	-4%	·
O=C(O)[C@]1(S(=O)(=O)c2ccccc2)C[C@@H]2ON=C(c3cccc(Br)c3)[C@@H]2C1
→ ·	·	·	5%	-6%	·	-23%	-1%
O=[N+]([O-])C(=C1Nc2ccccc2N1)C(Cl)=C(Cl)Cl
→ ·	·	·	0%	3%	·	?	-1%
O=C(OCC#CCSc1nc2ccccc2s1)c1ccco1
→ 1%	-6.4%	36%[14.3 µM]	-35%	-15%	?	50%[activator]	?
COc1ccc(NC(=S)N2CCc3ccccc32)cc1OC
→ ·	·	·	15%	-4%	·	0%	8%
COc1cccc(CC2(CO)CCCN(Cc3cc4ccccc4[nH]3)C2)c1 (configuration not stated)
→ ·	·	?	-3%	-8%	4µM*	-19%	-2%
Cc1cc(OC(C)C(=O)Nc2cccnc2)ccc1Cl (configuration not stated)
→ ·	·	-1%[46.1 µM]	-22%	-5%	?	-10%	?
O=C(Nc1cc(Cl)ccc1-n1cncn1)c1cn2ccccc2n1
→ ·	·	7%	·	-10%	22%[46.1 µM]	-8%	2%
Cn1c(=O)c2c(nc(NCc3ccccc3)n2CC(=O)NCc2ccccc2)n(C)c1=O
→ ?	4.5%	-2%	-53%	11%	5%&5%	-19%	-3%
CCCSCCCNC(=O)c1ccc(NC(=O)C2=CSCCO2)cc1
→ ·	·	·	-25%	0%	·	5%	-2%
COc1cc(C2NC(=O)NC(C)=C2C(C)=O)cc(OC)c1OC (configuration not stated)
→ ·	·	-1%	1%	1%	26%	-3%	0%
COc1ccc(C2CC(=O)C=C(O)C2)cc1 (configuration not stated)
→ -2%	-2.8%	4%	?	2%	?	-23%	18%
O=C(NCc1ccco1)c1ccc2c(c1)N(Cc1ccc(Cl)cc1)C(=O)c1ccccc1S2=O (configuration not stated)
→ -16%	-0.1%	-25%[46.1 µM]	·	·	-8%[46.1 µM]	-14%	·
